Mtb bLac sens – beta-lactam sensitization of Mtb H37Rv; M. tuberculosis H37Rv growth with meropenem, percent inhibition; hits of this screen are not shown here; inhibition, % at 25 µM; actives 0.27% (n = 330,000); AID 434955;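 active means about 74% or more and at least 40 points above the plate without the antibiotic, then above 30% in a dose series; inconclusive means first-round hits that could not be retested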;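 further: growth measured after seven days incubation then overnight dye step; 0% = bacteria only wells and 100% = bacteria with antibiotic; twin plates without the antibiotic show which effects depend on it; some results filed as inactive read as strong as hits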
Active calls of the source: *; ? = inconclusive. An excerpt; count on the stated rates, not on these rows.

SMILES	Mtb bLac sens
O=C(CNC(=O)C1CCCCC1)OC(C(=O)c1ccccc1)c1ccccc1 (stereo not given)	2
O=C(OCC(=O)c1ccc(Br)s1)c1ccc(O)cc1	0
CCC(=O)N1CCN(C(=O)c2ccccc2)CC1	-1
COc1ccc(C(C)(C)C)cc1NC(=O)CCCN1C(=O)NC(C)(C)C1=O	-4
COc1ccc(CCC(=O)Nc2cccc(S(=O)(=O)N3CCCCCC3)c2)cc1OC	-6
CCOc1ccccc1C(=O)NCC(=O)NNC(=O)c1cccs1	2
CN(CC(=O)NCCc1ccc(Cl)cc1)S(=O)(=O)c1cccs1	-1
CC(C)(C)c1nnc2sc(SCC(=O)NCc3ccco3)nn2c1=O	5
COc1ccc(Cl)cc1NS(=O)(=O)c1cccc(C(=O)NC2CC2)c1	-4
Cc1nc2ccc(NS(=O)(=O)c3ccccc3F)cc2s1	-3
Cc1cc(C)n(-c2ccc(C(=O)N3CCN(S(=O)(=O)c4ccc(C(C)C)cc4)CC3)cc2)n1	3
COc1cccc(NC(=O)COC(=O)c2c(NC(C)=O)sc(C)c2C)c1	2
C[C@@H]1COC(=O)[C@@H](NC(=O)OCC2c3ccccc3-c3ccccc32)C/C=C\C[C@@H](CC(=O)N(CCO)Cc2ccccc2)C(=O)N1	8
Cc1cc(C(=O)CSc2nnc(-c3ccco3)o2)c(C)n1C	-3
COC(=O)C1=C(c2ccccc2OCc2ccccc2)C[C@@H]2CC[C@H]1N2C(=O)NCc1cccc(C(F)(F)F)c1	-8
O=C(/C=C/c1ccccc1Cl)OCC(=O)N1CCCC1	-2
COc1ccc(S(=O)(=O)NCCc2ccccn2)cc1	2
COc1ccccc1NC(=O)COC(=O)COc1ccccc1F	-3
CC1CCCCC1NC(=O)CSc1nnc(COc2ccc(Cl)cc2)o1 (stereo not given)	-1
COc1ccc(NC(=O)N(C)C[C@H]2Oc3ccc(NC(=O)C4CC4)cc3C(=O)N([C@H](C)CO)C[C@@H]2C)cc1	-1

The final 5 records of the part before lead into the next:
SMILES	Mtb bLac sens
O=C(/C=C/c1ccccc1Cl)OCC(=O)N1CCCC1	-2
COc1ccc(S(=O)(=O)NCCc2ccccn2)cc1	2
COc1ccccc1NC(=O)COC(=O)COc1ccccc1F	-3
CC1CCCCC1NC(=O)CSc1nnc(COc2ccc(Cl)cc2)o1 (stereo not given)	-1
COc1ccc(NC(=O)N(C)C[C@H]2Oc3ccc(NC(=O)C4CC4)cc3C(=O)N([C@H](C)CO)C[C@@H]2C)cc1	-1
O=C(CSc1ccccc1)Nc1ccc2c(c1)OCCO2	?
O=C(COC(=O)c1ccccc1F)NCc1ccc2c(c1)OCO2	2
CC(C)(CNC(=O)c1ccc(S(=O)(=O)Nc2cccc(C(F)(F)F)c2)cc1)N1CCOCC1	-4
COc1ccc(NS(=O)(=O)c2ccc(N3CCCCC3)c(N)c2)cc1	-6
COc1ccc(-c2c(-c3cc(OC)cc(OC)c3)n(C)c3ccc(-c4ccc(S(N)(=O)=O)cc4)cc23)cc1	-2
COc1ccc(OC)c(NC(=O)Cn2nc(C)c3ccccc3c2=O)c1	4
CCn1c(SC(C)C(=O)NC2CCCC2)nc2cc(S(N)(=O)=O)ccc21 (stereo not given)	2
Cc1ccc(C(=O)CN2C(=O)NC3(CCCCC3C)C2=O)s1 (stereo not given)	-2
Cn1c(N)c(C(=O)COC(=O)Cc2ccc(Cl)c(Cl)c2)c(=O)n(C)c1=O	-6
COCCN(C(=O)c1ccc(C#N)cc1)c1c(N)n(Cc2ccccc2)c(=O)[nH]c1=O	-11
CCN(CC)C(=O)c1[nH]cnc1C(=O)N[C@@H](C)c1ccccc1	11
O=C(Cn1cc([N+](=O)[O-])ccc1=O)N1CCc2ccccc2C1	2
O=C(CSc1cccc[n+]1[O-])Nc1ccc(Cl)cc1F	6
COc1ccc(NS(=O)(=O)c2ccc(OC)c(NC(=O)CNC(=O)c3ccc(OC)cc3)c2)cc1	0
O=C(COC(=O)c1cccc(OC(F)F)c1)NCC1CCCO1 (stereo not given)	1
COc1ccc(C2C(C#N)=C(N)Oc3cccc(O)c32)cc1 (stereo not given)	1
Cc1noc(C)c1COc1ccccc1C(=O)NC(C)c1ccc(Cl)cc1 (stereo not given)	0
Cc1ccc(NC(=O)Cn2c(=O)oc3ccccc32)c(C)c1	-8
COc1ccc(NC(=O)CN2C(=O)NC(C)(c3ccc4c(c3)OCCO4)C2=O)cc1S(N)(=O)=O (stereo not given)	-3
CCOc1ccc(NS(=O)(=O)c2cc(C(=O)N3CCC3)ccc2Cl)cc1	-1
Cc1cccc(N2CCN(C(=O)CSc3nnnn3C3CC3)CC2)c1C	5
O=C(C[C@@H]1C/C=C\CC[C@H](Cc2ccc(F)cc2)C(=O)OC[C@@H]2CCCN2C1=O)NCCO	-10
CNC[C@@H]1Oc2ccc(NS(=O)(=O)c3ccc(OC)cc3)cc2CC(=O)N([C@H](C)CO)C[C@@H]1C	2
Cc1ccc(N(C(=O)c2snc(C(N)=O)c2N)C(C(=O)NCc2ccccc2)c2ccncc2)c(C)c1 (stereo not given)	5
CCn1c(C)cc(C(=O)COC(=O)c2ccccc2[N+](=O)[O-])c1C	0
NS(=O)(=O)c1ccc(NC(=O)CSc2nnc3n2CCCCC3)cc1	0
O=C(COc1ccccc1)Nc1nc(-c2cccnc2)cs1	-4
Cc1onc(-c2ccccc2)c1C(=O)Nc1cccc(S(=O)(=O)N2CCCCC2)c1	-7
Clc1ccccc1Nc1nc2ccccc2o1	-2
O=C(c1ccco1)N1CCN(Cc2cc(=O)oc3cc(O)ccc23)CC1	-4
COc1cccc(NC(=O)CN(C)C(C)C(=O)NC(=O)NC2CCCCC2)c1 (stereo not given)	-7
Cc1cccc(-c2nn(-c3ccccc3)cc2C(=O)N2CCN(C3CCS(=O)(=O)C3)CC2)c1 (stereo not given)	1
CCN(CC)S(=O)(=O)c1ccc(N2CCOCC2)c(NC(=O)c2ccc(=O)[nH]c2)c1	3
COc1cc(OC)cc(-c2c(-c3cccs3)c3cc(-c4ccc5[nH]ccc5c4)ccc3n2C)c1	4
CNS(=O)(=O)c1ccc(C(=O)NCC(=O)NC(C)c2cccs2)cc1 (stereo not given)	4
O=C(CNC(=O)c1n[nH]c2ccccc12)Nc1ccc(F)c(F)c1F	-2
Cc1ccc(S(=O)(=O)N2CCC(C(=O)NCC3CCCCC3)CC2)cc1	-6
CN(CC(=O)Nc1ccc(Cl)c(Cl)c1)C(=O)CNC(=O)C1CCCCC1	2
CC1CCCCC12NC(=O)N(CC(=O)Nc1ccc(S(=O)(=O)Nc3ncccn3)cc1)C2=O (stereo not given)	-9
CCc1noc(C)c1C(=O)N(C)CC(=O)Nc1cccc(OC)c1	-2

A different layout for 2 compounds above.
> CNC[C@@H]1Oc2ccc(NS(=O)(=O)c3ccc(OC)cc3)cc2CC(=O)N([C@H](C)CO)C[C@@H]1C
  Mtb bLac sens = 2
> Cc1ccc(N(C(=O)c2snc(C(N)=O)c2N)C(C(=O)NCc2ccccc2)c2ccncc2)c(C)c1 (stereo not given)
  Mtb bLac sens = 5

(further entries)
SMILES	Mtb bLac sens
CC1CCC2(CC1)NC(=O)N(CC(=O)N1CC(C)CC(C)C1)C2=O (stereo not given)	-3
CN(CC(=O)Nc1ccc(OC(F)(F)F)cc1)C(=O)c1ccc(N2CCCC2=O)cc1	4
CN(C)c1cccc(-c2csc(N3CCC(C(N)=O)CC3)n2)c1	4
COc1ccccc1N1CCN(C(=O)c2cc3c(=O)n4ccccc4nc3s2)CC1	17
NC(N)=NC(=O)c1nc(Cl)c(N2CCCCCC2)nc1N	6
FC(F)(F)c1cc(CCN2CCNC[C@@H]2c2ccccc2)cc(C(F)(F)F)c1	76
CC(NC(=O)C1CCN(S(=O)(=O)c2cccs2)CC1)c1cccc(Cl)c1 (stereo not given)	-4
OCC[C@H]1C[C@@H](O)[C@H](O)[C@]2(Cc3ccccc3CCO2)O1	-4
CCOc1ccc(Br)cc1S(=O)(=O)NC1CCCC1	2
C[C@H]1CN(S(=O)(=O)c2ccc3c(c2)OCCO3)CCN1S(=O)(=O)c1c(F)cccc1F	7
CC(=O)c1cccc(N2C(=O)CC(N3CCN(S(=O)(=O)c4ccc(Cl)cc4)CC3)C2=O)c1 (stereo not given)	-9
COCCN(CC(=O)Nc1cccc(C)c1C)C(=O)c1ccc(-n2cccn2)cc1	-2
Cc1cccc(NC(=O)CNC(=O)COc2cccnc2[N+](=O)[O-])c1C	0
NS(=O)(=O)c1cc(C(=O)O)cc(N2CCCC2)c1Oc1ccccc1	-2
Cc1ccc([C@@H]2CC=C(C(=O)O)[C@H](c3ccc(F)cc3)N2S(=O)(=O)c2ccccc2C)cc1	-5
CCN(c1ccccc1)S(=O)(=O)c1ccc(Cl)c(C(=O)NCc2ccco2)c1	-7
COc1ccccc1C(=O)NCCC(=O)NCC(c1ccco1)N1CCCC1 (stereo not given)	-2
Cc1ccc(C(=O)Nc2ccc(N3CCOCC3)cc2)cc1S(=O)(=O)N1CCCCC1	-5
COc1ccc(C(=O)Nc2nnc(SCC(=O)NC3CC3)s2)cc1	4
O=S(=O)(c1ccccc1)c1nc(-c2cccs2)oc1NCc1cccnc1	-3
C#CCOCCOCCOCCNc1nc(N2CCN(C(=O)Cn3cc(CCCN=C(N)N)nn3)CC2)nc(N2CCN(C(=O)[C@H]([C@@H](C)CC)n3cc(CCCCN)nn3)CC2)n1	-8
O=C(Nc1ccccc1)c1cccc(N2C(=O)C3C4CC(C(Br)C4Br)C3C2=O)c1 (stereo not given)	?
CN(Cc1cccc(F)c1)C(=O)CN1C(=O)NC2(CCc3ccccc32)C1=O (stereo not given)	-1
COc1ccc(NC(=O)c2ccc(S(=O)(=O)N3CCCCC3)cc2)c(OC)c1	-4
COCCNS(=O)(=O)c1ccc(Cl)c(C(=O)NC2CCN(Cc3ccccc3)CC2)c1	-1
O=C(CSc1nnc(-c2ccccc2)o1)NC1CC1	56
CC(C)(C)OC(=O)NCCCC[C@H](NC(=O)c1[nH]cnc1C(=O)N[C@@H](Cc1ccccc1)C(=O)OCc1ccccc1)C(=O)OC(C)(C)C	1
NS(=O)(=O)c1ccc(CNC(=O)c2ccc(NS(=O)(=O)c3cccs3)cc2)cc1	-3
COC(=O)[C@]1(Cc2ccccc2)N[C@H](CN(C)C(=O)COc2ccccc2)[C@@H]2C(=O)N(Cc3ccccc3)C(=O)[C@@H]21	-11
Cc1ccc(C(=O)Nc2ccccc2C(=O)O)cc1S(=O)(=O)Nc1ccccc1	-3
COC(=O)C1=C(c2ccc(F)cc2F)C[C@@H]2CC[C@H]1N2C(=O)NCC1CC1	3
Cc1ccc(S(=O)(=O)N2CCN(C(=O)CN3C(=O)c4ccc([N+](=O)[O-])cc4C3=O)CC2)cc1C	-6
COc1ccc(NS(=O)(=O)c2cccc(C(=O)NCCc3ccc(S(N)(=O)=O)cc3)c2)cc1	-2
C[C@H](CO)N1C[C@H](C)[C@@H](CN(C)S(C)(=O)=O)Oc2ccc(NC(=O)c3ccncc3)cc2C1=O	-3
O=C(C[C@@H]1C/C=C\CCCC(=O)OC[C@@H](c2ccccc2)NC1=O)NCCO	10
COc1ccccc1CC(NC(C)=O)C(=O)NC1CCN(C(=O)c2ccc(C)cc2)CC1 (stereo not given)	-2
Cc1cc(C)n2nc(SCC(=O)N3CCOCC3)nc2n1	-5
CN(C)c1ccc(S(=O)(=O)N2CCCCC2)cc1NC(=O)CCNC(=O)c1ccc(Cl)cc1	3
COc1cccc(CN(CC(=O)NCc2ccccc2)S(=O)(=O)CCl)c1	4
COc1ccc(Br)c(C(=O)Nc2cccc(S(=O)(=O)N3CCOCC3)c2)c1	-7
COc1ccc(C=NNc2ccc(S(=O)(=O)Nc3ccccc3C(=O)O)cc2[N+](=O)[O-])c(OC)c1	-5
COCCn1c(SCC(=O)c2c(N)n(C3CC3)c(=O)[nH]c2=O)nnc1-c1cccc(C)c1	-2
Cc1ccc(S(=O)(=O)N2CCN(C(=O)Cn3c(=O)cnc4ccccc43)CC2)c(C)c1	-3
O=C(CCNC(=O)c1ccccc1)NCc1ccccc1F	80
CC(C)(C)OC(=O)NCc1ccc(CNC(=O)c2[nH]cnc2C(=O)NC2CCN(C(=O)OC(C)(C)C)CC2)cc1	15
CC(C)CN1CCN=C1N(C)C	1
NC(=O)c1ccc(NC(=O)COC(=O)C2COc3ccccc3O2)cc1 (stereo not given)	3
Cc1noc(NS(=O)(=O)c2ccc(NC(=O)COc3ccc(C#N)cc3)cc2)c1C	-4
COc1ccc(C(=O)NCc2ccncc2)cc1S(=O)(=O)NCc1ccc(Cl)cc1	-2
CC1CCCN(CC(=O)Nc2cc(S(=O)(=O)N3CCOCC3)ccc2N2CCCC2)C1 (stereo not given)	-5
COc1ccc(Oc2nc3c(c(=O)n(C)c(=O)n3C)n2C)cc1	-4
COc1cc(C)ccc1OCC(=O)NCC1CCCO1 (stereo not given)	3
O=C(CSc1ncnc2ccccc12)NC1CCS(=O)(=O)C1 (stereo not given)	-6
Cn1cccc1C(=O)NCc1ccc(Cl)cc1	-2
COc1ccc(C(=O)OCC(=O)Nc2c(C)n(C)n(-c3ccccc3)c2=O)cc1OC	-8
CC1CCCCC12NC(=O)N(CC(=O)Nc1sccc1C(N)=O)C2=O (stereo not given)	-9
C[C@H](CO)N1C[C@H](C)[C@@H](CN(C)S(=O)(=O)c2cccs2)Oc2c(NC(=O)c3ccncc3)cccc2C1=O	5
COc1ccc(N(CC(=O)NC2CCCCCC2)S(=O)(=O)c2ccc(C)cc2)cc1OC	?
Cc1nnc(NC(=O)CSc2nnc(CC(=O)Nc3ccccc3C)n2C)s1	4
NC(=O)c1ccccc1NC(=O)CC1(CC(=O)O)CCCC1	-4
CC(C)Cn1nc(C(=O)NCc2ccccc2CN2CCCC2)c2ccccc2c1=O	8

Five entries from above, comma-delimited.
smiles,Mtb bLac sens
Cc1noc(NS(=O)(=O)c2ccc(NC(=O)COc3ccc(C#N)cc3)cc2)c1C,-4
COc1ccc(C(=O)NCc2ccncc2)cc1S(=O)(=O)NCc1ccc(Cl)cc1,-2
CC1CCCN(CC(=O)Nc2cc(S(=O)(=O)N3CCOCC3)ccc2N2CCCC2)C1 (stereo not given),-5
COc1ccc(Oc2nc3c(c(=O)n(C)c(=O)n3C)n2C)cc1,-4
COc1cc(C)ccc1OCC(=O)NCC1CCCO1 (stereo not given),3
